# Screening results: PubChem, several laboratories
# Insulin prom inh: TRM-6 insulin promoter activity inhibition | inhibition, % at 2 µM | TRM-6 cells (human fetal islet line), insulin promoter-eGFP reporter, imaging; reporter expression induced with tamoxifen | hit rate 0.9% among 130,000;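 active = inhibition above the mean plus 3 SD, with well images judged a real hit on visual review, cut at about 60% in these data, passing the limit was not always enough; inconclusive = inhibition over the cutoff but images rejected on review; inactive = inhibition not above the cutoff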
# HSV replic up: HSV replication enhancement; HSV replication augmentation in cells, fold increase; maximum fold increase; hit rate 0.005% among 220,000; AID 1956;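 active = peak rise of 1.5-fold or more in the series; inconclusive = self-fluorescent or not available for retest; tested in PC3 cells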;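 also: first round at 10 µM; read as green reporter fluorescence; hits show the peak of a series up to 25 µM; 1 = signal of infected wells without compound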
# RGS16-Gao HTS: RGS16-Galphao interaction regulator (human); binding response (% of control), % at 10 µM; hit rate 0.38% among 220,000; bead-based flow cytometry RGS16-Galphao binding, fluorescence; actives lie on both sides;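 active = below 25% or above 175%, edge rows of some plates excepted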;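 also: Galphao activated by GDP with aluminum fluoride before binding; 100% = wells without compound and 0% = beads without RGS; some results beyond the cut were filed as inactive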
# PKD1 inh: inhibitors of human PKD1 kinase; Q15139; PKD1 kinase fluorescence polarization assay; inhibition, %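 (about 10 µM by stock and volumes)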; hit rate 0.056% among 200,000;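 active = inhibition of 50% or more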;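 also: controls were vehicle for no effect and a reference inhibitor for full effect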
# Target sequence (Q15139 whole entry, looked up): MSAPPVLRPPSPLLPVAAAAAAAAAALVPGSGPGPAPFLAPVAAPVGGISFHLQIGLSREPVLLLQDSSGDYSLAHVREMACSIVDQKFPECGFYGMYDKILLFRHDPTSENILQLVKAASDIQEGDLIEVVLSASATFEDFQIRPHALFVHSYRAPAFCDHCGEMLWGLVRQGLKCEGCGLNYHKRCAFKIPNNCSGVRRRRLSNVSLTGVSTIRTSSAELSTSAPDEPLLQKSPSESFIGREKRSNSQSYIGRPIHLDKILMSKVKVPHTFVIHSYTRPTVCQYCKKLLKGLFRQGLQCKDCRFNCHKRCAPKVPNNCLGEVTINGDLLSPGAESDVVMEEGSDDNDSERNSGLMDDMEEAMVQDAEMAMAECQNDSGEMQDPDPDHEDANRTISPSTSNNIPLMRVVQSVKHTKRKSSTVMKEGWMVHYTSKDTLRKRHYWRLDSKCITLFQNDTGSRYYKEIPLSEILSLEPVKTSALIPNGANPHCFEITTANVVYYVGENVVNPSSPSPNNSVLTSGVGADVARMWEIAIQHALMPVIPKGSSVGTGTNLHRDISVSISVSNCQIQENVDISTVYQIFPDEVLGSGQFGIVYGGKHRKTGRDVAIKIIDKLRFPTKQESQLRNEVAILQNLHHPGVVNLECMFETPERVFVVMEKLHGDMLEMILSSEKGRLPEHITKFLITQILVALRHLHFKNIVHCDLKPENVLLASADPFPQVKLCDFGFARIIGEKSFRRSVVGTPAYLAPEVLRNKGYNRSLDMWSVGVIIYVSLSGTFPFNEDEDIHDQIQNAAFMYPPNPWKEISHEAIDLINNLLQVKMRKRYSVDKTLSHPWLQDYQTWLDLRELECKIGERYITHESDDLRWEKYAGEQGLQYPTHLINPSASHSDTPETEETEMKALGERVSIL
# GALR2 agonist: activates the human galanin receptor 2 | O43603 | AID 803 | activation, %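 (tested at 5 µM)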 | hit rate 0.48% among 140,000 | GALR2-expressing cells, agonist activation read-out;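 active = above mean plus 3 SD of all compounds, about 5% in these data, not always enough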;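 also: 0% = vehicle buffer wells and 100% = reference agonist at full effect; tested in CHO reporter cells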
# Insulin prom inh cell count: also measured in Insulin prom inh; calls as there; normalized cell count, %; measured here: cell count, toxicity; reference of the scale not given here;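 cells exposed to compound for 48 h; stained nuclei by imaging scaled within each plate; lower means fewer cells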
# HSV replic up primary fold: second read-out of HSV replic up, no call of its own (marks repeat the call); fold increase; compound at 10 µM; measured here: primary screen fold increase 10 uM; tested in PC3 cells;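 GFP signal in the first replicate; 1 = infected wells without compound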
# The depositor's hits bear a star; i = inactive; u = inconclusive; x = not tested or not shown. Outcome played no part in choosing rows; 1.3% or so of the library scored in one or more.
SMILES,Insulin prom inh,Insulin prom inh cell count,HSV replic up,HSV replic up primary fold,RGS16-Gao HTS,PKD1 inh,GALR2 agonist
COc1ccc(-c2nnn(CC(=O)NC3CCCc4ccccc43)n2)cc1OC (centres undefined),30.8,87.8,i,1.04,x,-6.8,-0.2
CNc1ccc(/C=C2\CSc3ccccc3C2=O)cc1[N+](=O)[O-],x,x,i,0.67,93.9,-11.9,x
Cc1[nH]n(-c2ccccc2)c(=O)c1/C=N/N1C(=O)c2cccc3cccc(c23)C1=O,11.1,82.0,i,0.94,87.9,-1.3,x
O=C(Nc1ccccc1[N+](=O)[O-])C1C(c2ccccc2)=C1c1ccccc1,3.2,143.0,i,1.06,106.1,-9.9,-1.6
O=C(NCCOC(=O)c1ccc(S(=O)(=O)N2CCOCC2)cc1)c1cccnc1,26.9,134.9,i,0.94,100.0,-10.7,-2.8
CCOc1ccc(C(CC(=O)O)NC(=O)COc2ccccc2OC)cc1OC (centres undefined),45.5,110.6,i,0.93,96.7,11.9,x
CCCCN(C)S(=O)(=O)c1ccc(C(=O)N=c2sc3cc(NC(C)=O)ccc3n2C)cc1,x,x,i,0.98,110.8,-0.9,3.0
Cc1cc(-c2nn(-c3ccccc3)cc2/C=C2\SC(N)=NC2=O)ccc1OC(C)C,-35.7,135.2,i,0.8,99.1,0.8,0.1
NC(CC(=O)NC(c1ccccc1)(c1ccccc1)c1ccccc1)C(=O)O (centres undefined),x,x,i,1.17,94.2,1.4,x
CCOC(=O)Cc1csc(NC(=O)CCS(=O)(=O)Cc2ccccc2)n1,25.6,108.9,i,0.94,121.5,-7.0,1.8
CNC(=O)c1sc(-c2cccnc2)nc1C,0.0,118.3,i,0.88,93.2,-9.9,-1.4
C=CCNC(=S)N/N=C/c1cn(C)c2ccccc12,x,x,i,0.89,95.7,x,x
C=CCn1c(CSCc2ccccc2)nnc1SCC(=O)NCc1ccccc1,-26.8,116.4,i,1.01,102.5,-11.9,-0.9
CC(C)c1nnc(SCC(=O)NCc2ccco2)n1C,11.1,53.9,i,0.94,99.6,-0.3,-1.3
COc1ccc(C(=O)N/N=C/c2cc3ccccc3[nH]c2=O)cc1,x,x,i,0.96,102.6,-5.3,x
N=c1c(S(=O)(=O)c2ccccc2)cc2c(=O)n3ccccc3nc2n1Cc1ccco1,x,x,i,1.05,103.5,5.5,1.1
CC(=O)NC12CC3CC(C1)CC(C(=O)OCC(=O)c1ccc4c(c1)OCCO4)(C3)C2,x,x,i,1,103.8,-4.0,0.3
Cc1occc1C(=O)Nc1cccc(/C=C/C(=O)O)c1,13.6,86.3,i,0.897,x,-4.3,0.8
CCCCN(C(=O)CNC(=O)c1cccs1)C(C(=O)NC1CCCCC1)c1cccnc1 (centres undefined),11.6,78.4,i,0.99,91.0,-12.9,-2.2
O=C(C(c1ccccc1)c1ccccc1)N1CCN(Cc2ccccn2)CC1,0.0,79.5,i,1,103.8,-1.2,-1.7
Cc1ccc(CNC(=O)C(CCC(N)=O)NC(=O)OCc2ccccc2)cc1 (centres undefined),-5.3,99.3,i,0.98,115.6,-3.9,-1.9
COc1ccccc1N1CCN(c2cc(=O)n(Cc3ccc(F)cc3)c(=O)[nH]2)CC1,x,x,i,0.6,99.4,-12.5,-3.1
Cc1cccnc1NC(=O)Cn1nc(-c2ccccc2)oc1=S,30.0,101.7,i,0.88,106.7,2.1,-0.7
C/C(CC(=O)NCc1ccco1)=N\NC(=O)COc1ccc(C)cc1,2.8,82.4,i,0.95,27.1,14.1,-0.6
CCOC(=O)C1C(CC)NC(=S)NC1(C)O (centres undefined),0.0,73.0,i,1.02,120.5,-4.4,x

# Pulled by structure from the list above (two):
SMILES,Insulin prom inh,Insulin prom inh cell count,HSV replic up,HSV replic up primary fold,RGS16-Gao HTS,PKD1 inh,GALR2 agonist
Cc1ccc(CNC(=O)C(CCC(N)=O)NC(=O)OCc2ccccc2)cc1 (centres undefined),-5.3,99.3,i,0.98,115.6,-3.9,-1.9
C=CCNC(=S)N/N=C/c1cn(C)c2ccccc12,x,x,i,0.89,95.7,x,x

# (next part)
SMILES,Insulin prom inh,Insulin prom inh cell count,HSV replic up,HSV replic up primary fold,RGS16-Gao HTS,PKD1 inh,GALR2 agonist
O=S(=O)(Nc1cccc(-c2nnco2)c1)c1ccc(Cl)cc1,x,x,i,1,91.1,x,x
CCCN(Cc1cc2cccc(C)c2[nH]c1=O)C(=O)c1cccc(OC)c1,-28.6,133.0,i,0.92,x,-4.3,0.5
COc1cccc(-c2nnc(SCCOc3ccc4c(C)cc(=O)oc4c3)o2)c1,-26.7,111.4,i,1.01,106.2,3.5,-0.5
CS(=O)(=O)N1CCN(C(=O)NC23CC4CC(CC(C4)C2)C3)CC1,51.3,94.0,i,0.76,102.8,-3.0,-2.5
CCOc1ccc2nc(Cl)c(CN(C(C)=O)C3CCCCC3)cc2c1,x,x,i,1.03,107.0,1.8,x
Cc1cc(C)n2c(SCC(=O)Nc3ccc(Cl)cn3)nnc2n1,-6.7,168.3,i,0.94,82.0,-4.7,-2.3
CCn1nc(C)c(Oc2ccccc2O)c1C,35.7,73.5,i,0.88,100.2,-0.6,-1.6
Nc1nc(SCC(=O)Nc2ccccc2Oc2ccccc2)n[nH]1,-78.6,75.3,i,1.11,66.3,-3.9,0.3
CCOc1ccc(OCC)c(NC(=O)C2CCCN(S(=O)(=O)c3c(C)noc3C)C2)c1 (centres undefined),-57.1,145.3,i,1.07,103.2,-26.8,-2.1
CCOC(=O)C1(Cc2ccc(OC)cc2)CCN(C(=O)c2csc(C)n2)CC1,x,x,i,1.13,95.7,-0.7,x
COCCCNC(=O)C1CCCN(S(C)(=O)=O)C1 (centres undefined),14.3,122.7,i,0.99,97.4,-11.7,-2.1
O=C(O)COc1ccccc1/C=C1\SC(=Nc2ccc(F)cc2)N(c2ccc(F)cc2)C1=O,-35.3,91.5,i,1.09,93.0,-5.7,x
CCc1cc(SC#N)cc(C)c1N,x,x,i,0.99,105.7,-8.3,x
COCCNC(=O)CSc1ncnc2sccc12,-2.3,44.0,i,0.96,99.2,-4.3,-1.5
CCN(CC(=O)Nc1ccc(Cl)c(S(=O)(=O)N(C)C)c1)CC(=O)NC(C)C,-45.5,57.5,i,0.89,111.4,-2.9,x
Cc1c(C(=O)NC(C)c2ccccc2)c(-c2ccccc2)nn1-c1ccccc1 (centres undefined),32.0,51.7,i,0.83,100.3,-15.9,-0.7
O=[N+]([O-])c1ccc(N/N=C2/CCCCC2c2ccccn2)c([N+](=O)[O-])c1 (centres undefined),-41.9,71.4,i,0.95,95.6,1.9,0.5
COc1ccccc1NC(=S)N(CCc1c(C)[nH]c2ccccc12)Cc1cccs1,x,x,i,0.86,107.8,0.2,-1.1
COc1ccc(-c2cc(C#N)nc(Cl)n2)cc1,x,x,i,1.01,98.4,x,x
N#Cc1c2c(c(NCCN3CCOCC3)n3c1nc1ccccc13)CCCC2,x,x,i,0.83,102.6,3.6,0.4
O=C(C1CCC1)N1CCc2cc(S(=O)(=O)N3CCN(c4ccccn4)CC3)ccc21,3.7,70.8,i,0.943,102.3,0.8,-0.8
Cc1csc2ncc(C(=O)N(Cc3ccccc3)c3ccccn3)c(=O)n12,x,x,i,0.83,108.5,6.1,-2.9
COc1ccc(OCCCC(=O)Nc2cccc([N+](=O)[O-])c2C)cc1,x,x,i,1.08,105.8,-13.3,-1.3
CCOC(=O)c1cnc(-c2ccccc2)nc1-c1ccccc1,36.6,127.8,i,1.11,109.0,-7.5,x
CCC(=O)Oc1ccc2c(=O)c(-c3ccc4ccccc4n3)c(CC)oc2c1C,-22.6,44.0,i,0.89,111.5,4.5,-4.0

# An excerpt from above in order of molecular weight, descending.
SMILES,Insulin prom inh,Insulin prom inh cell count,HSV replic up,HSV replic up primary fold,RGS16-Gao HTS,PKD1 inh,GALR2 agonist
O=C(O)COc1ccccc1/C=C1\SC(=Nc2ccc(F)cc2)N(c2ccc(F)cc2)C1=O,-35.3,91.5,i,1.09,93.0,-5.7,x
COc1cccc(-c2nnc(SCCOc3ccc4c(C)cc(=O)oc4c3)o2)c1,-26.7,111.4,i,1.01,106.2,3.5,-0.5
CCOC(=O)C1(Cc2ccc(OC)cc2)CCN(C(=O)c2csc(C)n2)CC1,x,x,i,1.13,95.7,-0.7,x
Cc1csc2ncc(C(=O)N(Cc3ccccc3)c3ccccn3)c(=O)n12,x,x,i,0.83,108.5,6.1,-2.9
COc1ccc(OCCCC(=O)Nc2cccc([N+](=O)[O-])c2C)cc1,x,x,i,1.08,105.8,-13.3,-1.3
CS(=O)(=O)N1CCN(C(=O)NC23CC4CC(CC(C4)C2)C3)CC1,51.3,94.0,i,0.76,102.8,-3.0,-2.5

# Next part:
SMILES,Insulin prom inh,Insulin prom inh cell count,HSV replic up,HSV replic up primary fold,RGS16-Gao HTS,PKD1 inh,GALR2 agonist
N#Cc1cc(-c2ccccc2)cnc1Sc1ccc(Cl)cc1,x,x,i,0.79,103.5,1.3,-1.3
O=C(NCCc1ccccc1)c1ccccc1NC(=O)C1CC=CCC1C(=O)O (centres undefined),x,x,i,0.9,92.7,5.2,-1.1
COc1ccc2[nH]c(=O)c(CN(Cc3ccco3)C(=O)c3ccccc3)cc2c1,x,x,i,0.92,99.5,12.6,0.9
CCC(C)C1C(C#N)=C(N)Oc2n[nH]c(-c3ccccc3)c21 (centres undefined),x,x,i,0.83,102.6,0.3,-2.2
COc1cc(C(=O)NCC(=O)n2nc(C)cc2C)cc(OC)c1OC,-63.6,95.6,i,0.89,94.6,-6.8,-0.8
CCOc1ccc(N=Cc2c(O)cc(C)oc2=O)cc1,x,x,i,1.02,62.1,-8.6,-2.3
COC(=O)c1ccc(COC(=O)c2ccccc2OC)cc1,x,x,i,1.07,69.5,-17.1,-1.3
COc1cccc(C(=O)O/N=C(\N)c2ccncc2)c1,-11.4,94.2,i,0.88,100.3,-13.0,-1.2
COC(=O)C1=NN(C(=O)c2ccc(Cl)cc2)C(O)(c2ccccc2)C1 (centres undefined),x,x,u,x,101.1,-15.9,-1.5
CC(=O)c1cn(CCCCCCCn2cc(C(C)=O)c(=O)[nH]c2=O)c(=O)[nH]c1=O,-10.3,128.5,i,1.05,100.9,-10.7,-1.9
NC(=O)C1CCN(C(=O)Nc2csc3ccccc23)CC1,x,x,i,1.05,97.8,x,x
CCOC(=O)CSc1nnc(Cc2ccccc2)n1CC1CCCO1 (centres undefined),x,x,i,0.93,97.9,-0.3,0.3
Cc1nc(CCNC(=O)Cc2ccccc2)cs1,x,x,i,1.01,100.0,5.4,1.6
COc1cc2c(cc1OC)C(c1ccc(N(C)C)cc1)CC(=O)N2 (centres undefined),11.8,150.9,i,0.93,87.8,-3.8,-0.2
Cc1cc(-c2ccco2)n(-c2ccccc2)n1,x,x,i,0.94,92.1,-7.5,-0.9
CCCCSc1nnc(-c2ccc(C)cc2)c2ccccc12,x,x,i,1,110.5,-10.9,-1.0
Cc1ccc(NC2=NCC(Cc3ccc(Br)cc3)S2)cc1 (centres undefined),x,x,i,0.91,135.5,-9.7,x
Cn1nnnc1SCCNCc1ccccc1F,38.5,79.9,i,1.05,102.5,0.7,-3.3
CCOC(=O)N1CCC(Nc2ccc(N3C(=O)C4CCCCC4C3=O)cc2[N+](=O)[O-])CC1 (centres undefined),x,x,i,0.97,104.4,0.8,x
O=C(CCc1nnc(Cc2c[nH]c3ccccc23)o1)NC(C1CC1)C1CC1,-8.7,148.9,i,1.03,98.0,-5.3,x
COc1ccc(-c2cc(C(=O)n3cnc4ccccc43)c3ccccc3n2)cc1,-42.0,43.3,i,1.03,121.0,-1.3,-2.1
O=C(CN1CCN(CC(=O)c2ccc(F)cc2)CC1)Nc1ccccc1Cl,-85.7,97.7,i,0.9,98.8,-8.3,-2.8
COc1ccc(-c2cc(-c3nnc(COC(=O)CC4CC5CCC4C5)o3)c3ccccc3n2)cc1OC (centres undefined),40.0,97.0,i,0.98,44.2,13.3,1.5
Cc1cnc(C(=O)OCC(=O)Nc2cccc(S(=O)(=O)N3CCCCC3)c2)cn1,17.6,62.0,i,1.1,97.9,-1.9,0.1
CN(/N=C/c1ccc(O)cc1O)c1ncc(C(F)(F)F)cc1Cl,x,x,i,0.98,104.4,x,x
CCOCCCNC(=O)C1CCN(S(=O)(=O)N2CCCC2)CC1,50.0,184.5,x,x,105.9,1.1,x
Cc1cc(-c2ccccc2)n(-c2ccc(C(N)=O)cc2)n1,x,x,i,0.92,99.1,-2.9,0.7
O=c1c2ccccc2cnn1Cc1n[nH]c(=S)n1-c1ccc(F)c(Cl)c1,0.0,119.1,i,0.82,95.0,-3.5,x
Clc1ccc(-c2nnc3n2CCCCC3)cc1,41.9,33.6,i,1,100.7,-3.5,-4.8
O=C(COC(=O)CNC(=O)C1CCCCC1)Nc1ccc2ccccc2c1,-56.5,100.8,i,1.02,101.2,-8.6,-1.2
